Ba CapD inh: blocks the Bacillus anthracis CapD enzyme. purified CapD enzyme, fluorescence intensity read-out; active compounds read low; some hits fall short of the stated cut. z-score (no concentration beside the values). hit rate 0.23% among 140,000. AID 492967;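 active means z-score under -4 in either of two replicates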;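 further: stock transfer was 100 nL into about 40 µL; score is relative to mean and spread of the plate; one replicate is shown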
AID504770: growth inhibitors of E. coli YBA685 in a screen for V. cholerae RctB (chromosome II replication) inhibitors. z-score (test concentration not listed). hit rate 0.27% among 130,000. E. coli YBA685 rctB-dependent plasmid, OD600 growth, 3 h; active compounds read low. AID 504770;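 active means z-score under -2 on both plates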;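 further: wells of about 30 µL received 100 nL stock; score is relative to mean and SD of the test wells; the first replicate is given; strong numbers were not always called active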
* hit, by the source's call; i = inactive; x = no result given. Some of the compounds tested; count on the stated rates, not on these rows.

SMILES	Ba CapD inh	AID504770
COc1ccc(-c2cn3ccc4ccccc4c3n2)cc1OC	54	x
COc1ccc2cc3cc(C(=O)Nc4ccc(Oc5ccccc5)cc4)oc3nc2c1	0.43	0.1
CC1CN(C(=S)NC(=O)C2CC2)CCN1C(=S)NC(=O)C1CC1 (stereo not given)	x	-0.6
CN(C)C(=O)Nc1ccc2c(c1)nnn2C	7.7	-0.85
O=C(CC(C(=O)Nc1ccc2c(c1)OCO2)C(=O)c1ccccc1)NC1CCS(=O)(=O)C1 (stereo not given)	x	-0.75
NCCN1C(=O)C2C3c4ccccc4C(c4ccccc43)C2C1=O (stereo not given)	0.2	0.6
CC(=O)NC(Cc1ccc2ccccc2c1)C(=O)O (stereo not given)	0.15	-0.2
CNCc1ccc(N2CCCC2)cc1	x	0.25
CCOC(=O)CC1C(=O)NCCN1S(=O)(=O)c1ccc(Cl)cc1 (stereo not given)	-0.79	x
O=C(Nc1ccccc1Sc1ncc(-c2ccc(Cl)cc2)cn1)c1ccco1	-1	x
COc1ccc(-c2cc(C(F)(F)F)n3nc(C(=O)N4CCN(C)CC4)cc3n2)cc1OC	-0.14	x
c1ccc(-c2ncc(-c3cnccn3)c(-c3cccnc3)n2)nc1	-1.1	x
Cc1ccc(-c2cc(-c3ccc(Cl)cc3Cl)c(C#N)c(=O)[nH]2)cc1	3.7	x
O=[N+]([O-])c1ccc(Sc2ccc(Cl)cc2)nc1	-0.31	x
CCOC(CNC(=O)c1cccc(NC(=O)c2cccs2)c1)(OCC)c1ccccn1	0.43	x
COC(=O)c1sccc1S(=O)(=O)Nc1ccc(-c2cn3c(n2)SCC3)cc1	0.57	-0.35
COc1ccc2[nH]cc(CCNC(=O)c3cn[nH]c3)c2c1	0.29	x
O=C(c1noc2c1COc1ccccc1-2)N(Cc1ccccc1)Cc1cccs1	0.41	-0.8
COc1ccc2[nH]cc(CCNC(=O)OC/C=C(/C)Cl)c2c1	0.24	x
COC(=O)C(C)Nc1cccc(Br)c1 (stereo not given)	26	-0.2
CS(=O)(=O)N(Cc1ccc(Cl)cc1)c1ccc(C(=O)N2CCCCCC2)cc1	-1.9	-0.55
O=S(=O)(c1cccc(C(F)(F)F)c1)N1CCC(n2cccc2)CC1	-0.64	-0.65
Cc1c(C(=O)N2CCCc3ccccc32)sc2nc(-c3ccccc3)cn12	0.61	-0.9
COc1ccc(-c2c(C#N)c(N)n3c(nc4ccccc43)c2C#N)cc1OC	0.24	x
COc1ccc(-c2n[nH]c(=S)n2-c2ccc(Cl)cc2C)cc1	0.05	x
O=C1Oc2ccccc2C(=O)/C1=C/N1CCc2ccccc21	-0.25	-0.5
CCOC(=O)CC(N)c1ccccc1Cl (stereo not given)	0.65	-0.5
CC1(C)OC(=O)N(CCO)C1(C)O (stereo not given)	-0.41	x
O=C(N/N=C/c1ccco1)c1csc2c1CCCC2	x	2.2
Clc1ccc(-c2nn[nH]n2)c(Cl)c1	0.37	x

By substructure, the entries above with two or more sulfur atoms
SMILES	Ba CapD inh	AID504770
CC1CN(C(=S)NC(=O)C2CC2)CCN1C(=S)NC(=O)C1CC1 (stereo not given)	x	-0.6
COC(=O)c1sccc1S(=O)(=O)Nc1ccc(-c2cn3c(n2)SCC3)cc1	0.57	-0.35

Continuation:
SMILES	Ba CapD inh	AID504770
COc1ccc(OCCNS(=O)(=O)c2c(C)cccc2Cl)cc1	-0.08	x
Cn1ncc2c(NCc3cccnc3)ncnc21	-0.15	-1.2
CC1=CC2=NS(=O)(=O)CCN2C=C1	x	-0.55
CC(C)(Cc1ccc(O)cc1)NC(=O)c1ccccc1	x	0.1
Cc1cc(COC(=O)/C(C#N)=C/c2ccc(N(C)C)cc2)no1	x	-0.1
CCn1cc(S(=O)(=O)c2ccc(OC)cc2)c(=O)c2ccccc21	-0.34	0.35
Cc1ccc(-n2ncc3c(=O)n(-c4ccc(C(C)C)cc4)c(-c4ccco4)nc32)cc1	0.96	0.3
CC(C)NC(=O)C(F)(F)F	x	0.25
c1ccc(Nc2nc3c(s2)Cc2ccccc2-3)cc1	-0.24	-0.95
CCC(CO)Nc1ncnc2c1cnn2-c1ccccc1 (stereo not given)	0.23	-0.6
O=C(O)CSc1nncn1-c1ccccc1	0.74	x
Cc1ccc(CCCC(=O)NC2CCS(=O)(=O)C2)cc1 (stereo not given)	x	-0.6
COc1cccc(C=Nc2ccccc2C(=O)Nc2ccc(F)cc2)c1O	70	-0.7
CN(CCc1ccccn1)S(=O)(=O)c1ccc2c3c(cccc13)C(=O)N2	3.5	-0.15
Cc1cc2c(c(=O)[nH]1)C(c1ccncc1)C(C#N)=C(N)O2 (stereo not given)	x	-0.8
O=C(c1cc(-c2ccc(Cl)cc2)n[nH]1)N1CCCC1	-0.84	0.8
CCCCn1c(SCC(=O)c2ccc(O)c(O)c2)nc2ccsc2c1=O	-0.61	-0.65
O=C(O)c1sccc1S(=O)(=O)N1CCN(c2ncc(C(F)(F)F)cc2Cl)CC1	0.12	-1
Clc1ccc(C2N(c3ccccc3)CCN2c2ccccc2)c(Cl)c1	-0.62	x
CCOC(=O)c1c(NC(=S)Nc2ccc(OC)cc2)sc2c1CC(C)(C)OC2	-0.75	x

Two compounds picked at random from the list so far, as already listed:
SMILES	Ba CapD inh	AID504770
O=C(O)c1sccc1S(=O)(=O)N1CCN(c2ncc(C(F)(F)F)cc2Cl)CC1	0.12	-1
CN(CCc1ccccn1)S(=O)(=O)c1ccc2c3c(cccc13)C(=O)N2	3.5	-0.15

The listing continues:
SMILES	Ba CapD inh	AID504770
CCOC(=O)c1ccc(Cl)c(N=Cc2ccccc2O)c1	13	0.2
CN=C1S/C(=C\c2ccc(N3CCCC3)cc2)C(=O)N1C	x	1.4
CC1CCN(CCNS(=O)(=O)c2csc(C(N)=O)c2)CC1	0.075	-0.55
COC(CNC(=O)c1ccc2c(c1)ncn2C1CCCCCC1)OC	-0.92	-0.7
CCC(C(=O)NCC1CCCO1)c1ccccc1 (stereo not given)	-0.11	0.3
CCn1cnc2cc(NC(=O)c3cc(OC)c(OC)c(OC)c3)ccc21	-0.18	0.35
c1ccc(CSc2ccc3nnc(-c4ccccn4)n3n2)cc1	0.37	-0.05
CCOc1ccccc1C1C=CCC1 (stereo not given)	2.4	-2.2
c1ccc(-c2ccc3ccccc3n2)nc1	-0.45	0.05
CNC(=S)N(CCc1c(C)[nH]c2ccccc12)Cc1cc(OC)c(OC)c(OC)c1	-0.33	-1.6
O=C(NNC(=O)c1ccc(-n2cccc2)cc1)c1ccncc1	-0.08	x
CC(=O)Nc1nonc1N1CCCC1=O	0.08	0
COc1cc(N/C=C(\C#N)c2nc(-c3cc4cc(Br)ccc4oc3=O)cs2)c(OC)cc1Cl	0.065	x
CSc1nc2ccccc2n1CN(C)Cc1ccc(Cl)s1	x	-0.6
O=C(Nc1cccnc1)c1cc(C2CC2)on1	-1	-0.65
CCCCOc1cccc(N/C=C(/C#N)c2nc(-c3cc4cc(Br)ccc4oc3=O)cs2)c1	0.015	x
CCC(=O)N(CC)Cc1cc2ccccc2[nH]c1=O	x	-0.9
COc1cc(/C=N/N2CCCCC2)ccc1OC(=O)c1cccnc1	x	-0.2
COc1ccc(OC)c(-c2csc(=Nc3ccccc3)n2CCCn2ccnc2)c1	x	-0.3
O=C(O)c1cccc(CSc2ncccn2)c1	-1.1	-0.5
Fc1ccc(NC(=S)/N=C/NOCc2ccc(Cl)cc2Cl)cc1	-0.97	x
CC(=O)Nc1ccc(S(=O)(=O)NCc2ccc(C(=O)NCc3ccccc3)cc2)cc1	0.39	0.3
COc1ccc(N(C(=O)c2ccco2)c2ccccc2)cc1	-0.44	-0.45
COn1ccc2ccc(S(C)(=O)=O)cc21	56	x
O=C1CC2CC3CC(C2)CC1C3	x	-0.8
CC1=C(c2ccc(C)cc2)S(=O)(=O)N=C1N1CCCC1	0.18	-0.6
Cc1ccc(CN2CCN(C/C=C/c3ccccc3)CC2)cc1	-0.03	-0.75
O=C(O)C1CCN(S(=O)(=O)c2ccc(-c3nn[nH]n3)cc2)CC1	-0.48	0.95
COc1ccc(C2(CNC(=O)c3ccccc3)CCOCC2)cc1	-0.23	-0.5
CC1CN(S(=O)(=O)c2ccc(Oc3cccc(Cl)c3C#N)cc2)CCN1c1ccc(Cl)cc1 (stereo not given)	-0.55	x
COC(=O)c1cc(S(=O)(=O)NCc2ccc(S(N)(=O)=O)cc2)oc1C	-0.28	-0.3
CC1CCN(S(=O)(=O)c2cn(CC(=O)N3CC(C)CC(C)C3)c(=O)c3ccccc23)CC1 (stereo not given)	0.7	0.3
O=C1c2ccccc2C(=O)N1CN1c2cccc3cccc(c23)S1(=O)=O	x	0.45
O=C(c1cccc(Br)c1)N1N=C(C(F)(F)F)CC1(O)c1cccnc1 (stereo not given)	-0.73	x
CC(=O)Nc1cccc(SSc2cccc(NC(C)=O)c2)c1	0.29	-0.1
CN(C(=O)Cn1nc(Cc2cccnc2)c2ccccc2c1=O)c1ccccc1	-0.51	1
NC(=O)CSc1nnc(NC(=O)Cc2cccs2)s1	x	-0.4
CCOc1cc(Br)cc(C(c2c(C)n(C)n(-c3ccccc3)c2=O)c2c(C)n(C)n(-c3ccccc3)c2=O)c1O	-0.015	x
CCOC(=O)C1=C(N)n2c(s/c(=C\c3ccc(Cl)cc3Cl)c2=O)=C(C#N)C1c1ccc(Cl)cc1Cl (stereo not given)	-0.26	x
COc1ccccc1OCCNC(=O)C1CCCCC1	-0.23	-1.1
Cc1oc(C23CC4CC(CC(C4)C2)C3)cc1C(=O)N1CCOCC1	x	-0.8
Cc1ccc(NC(=O)CSc2c(C)cc(=O)n(N)c2C)cc1C	x	-0.15
O=C(Nc1ccc(O)cc1)c1ccc2ccccc2c1	0.39	-0.9
CCOC(=O)n1c(=O)oc2cc(Br)ccc21	-0.015	-0.25
Cc1ccccc1C(=O)O/N=C1\CCCCC1c1ccc([N+](=O)[O-])cc1[N+](=O)[O-] (stereo not given)	1.4	x
NS(=O)(=O)c1ccc(CCn2c(-c3ccc4ccccc4c3)csc2=Nc2ccc(F)cc2)cc1	-0.34	x
Cc1cc(OCC(=O)N(Cc2ccc(Cl)cc2)Cc2ccco2)cc(C)c1Cl	0.42	-0.15
CC1CCC2C(=O)N(c3ccc(C(=O)OCC(=O)c4ccc(Cl)c([N+](=O)[O-])c4)cc3)C(=O)C2C1 (stereo not given)	0.05	x
CCOC(=O)CSc1nc(C)c2ccc(C)cc2n1	0.3	1.4
CCOc1cccc2sc(N)nc12	0.2	-0.55
Other structures.
SMILES	Ba CapD inh	AID504770
O=S(=O)(c1cccc2cccnc12)N1CCCCC1	i	-0.85
O=C1c2ccccc2C(Nc2ccccc2)N1Cc1ccccc1 (stereo not given)	0.84	-0.65
Cc1nn(CCS(=O)(=O)c2ccc(Cl)cc2)c(C)c1Br	-0.38	0.3
CCN(CC)CCCOc1c(OC)cccc1OC	0.32	0.05
O=[N+]([O-])c1ccc(C2=NN(c3ccccc3)C3(S2)c2ccccc2C(c2ccc(Br)cc2)=NN3c2ccccc2)cc1 (stereo not given)	0.14	x
Cc1[nH]c2ccccc2c1C1CCNCC1	0.21	-0.15
Cn1cc(C(=O)c2c(F)cccc2F)cc1/C=C(\C#N)C(=O)c1ccccc1	0.44	x
O=S(=O)(CC(O)CS(=O)(=O)c1ccc(Cl)cc1)c1ccccc1 (stereo not given)	-1.5	-0.15
CN1CCN(CCC=C2c3ccccc3Sc3ccc(S(=O)(=O)N(C)C)cc32)CC1	1.2	-0.1
CCN(CCCc1ccccc1)CCCc1ccccc1 (tested in a mixture with another compound)	-0.65	x
OCCNCCSc1nc2ccccc2s1	x	1.2
CSc1nc(O)cc(=O)[nH]1	-0.11	-1.1
Cc1cccnc1NC(=O)C(C)(C)C	-0.24	1.2
CCN(C(=O)C1CCCCC1)c1ccccc1C	0.21	0.95
C=CCNC(=O)COc1ccc2c(c1)C(=O)CC(C)(C)O2	69	-0.55
COc1ccc(Nc2nnc(SCC3CCCO3)s2)cc1 (stereo not given)	x	-0.05
COc1cccc(-n2c(=S)sc3c2nc(SCC#N)n2c4ccccc4nc32)c1	-0.19	x
O=C1CNC(=S)N1CCc1ccc(Cl)cc1	-1.1	x
CC(C)(C)C(=O)COC(=O)c1ccccc1Cl	x	0.95
CCn1c2ccccc2c2cc(CN3CCN(C(=O)OCC4CCCN(O)C4)CC3)ccc21 (stereo not given)	12	x
O=C(Nc1ccncc1)c1ccc(N2CC3CC(C2)c2cccc(=O)n2C3)c(NC(=O)c2ccccc2Br)c1 (stereo not given)	0.85	x
CC(=O)c1ccc(OCc2ccc([N+](=O)[O-])cc2)cc1	0.24	x
Cc1ccc(N=C2N=C(N)c3ccccc32)cc1	6.7	-0.55
CCOCCCn1c(SCc2ccc(C)cc2)nc2ccccc2c1=O	-0.045	x
CCOC(=O)c1cnc2ccccn2c1=O	x	1.1
O=C(O)CSc1cnccc1C(F)(F)F	-0.02	x
CN(C(=O)Cn1c(SCc2ccccc2F)nc2ccncc21)C1CCCCC1	0.59	-0.5
COc1ccc2[nH]c3c(=O)n(CCCC(=O)NCc4ccco4)c(=S)[nH]c3c2c1	1.3	0.6

One compound at a time, from the list above. Values in the order: Ba CapD inh	AID504770
Record of CN(C(=O)Cn1c(SCc2ccccc2F)nc2ccncc21)C1CCCCC1 = 0.59	-0.5
Record of COc1ccc2[nH]c3c(=O)n(CCCC(=O)NCc4ccco4)c(=S)[nH]c3c2c1 = 1.3	0.6
Record of Cc1ccc(N=C2N=C(N)c3ccccc32)cc1 = 6.7	-0.55
Record of CCOC(=O)c1cnc2ccccn2c1=O = x	1.1
Record of CCOCCCn1c(SCc2ccc(C)cc2)nc2ccccc2c1=O = -0.045	x

Assay outcomes (PubChem)
